BasE inh: BasE siderophore enzyme inhibitors, primary screen, biochemical, Acinetobacter baumannii ATCC 17978, fluorescence polarization | purified BasE, fluorescence polarization binding displacement | inhibition, % (no concentration beside the values) | actives 0.1% (n = 84,000);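 active = both replicates above 25% with normal brightness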;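 note: 0% = negative plate control signal and 100% = positive plate control signal; stock transfer was 100 nL into about 30 µL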
KSHV LANA nucl: inhibitors of KSHV LANA-nucleosome binding, primary screen, biochemical, fluorescence polarization, FITC-LANA1-23, chicken nucleosomes | FITC-LANA1-23 / chicken nucleosome fluorescence polarization; stronger effect = lower value | z-score (concentration not given with the values) | actives 0.3% (n = 51,000) | AID 720717, 2013;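 active = both repeat wells score below -2 in polarization z-score versus plate sample wells, excluding overly bright wells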;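 note: 100 nL library stock added to about 30 µL; numbers are from one replicate; some results filed as inactive read as strong as hits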
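test system = FITC-LANA peptide and chicken nucleosomes | amount = 240 nM purified chicken nucleosomes (480 nM peptide binding sites), final | reagent = 50 nM FITC-LANA1-23 probe | medium = TEN-BT buffer, pH 7.5 | doses = single compound addition by pin transfer, 100 nL per well | timing = 10–45 min, room temperature | detection = fluorescence polarization | repeats = duplicate plates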
* marks the source's active call; other numbers are inactive results; / = no result given. A portion of the library; count on the stated rates, not on these rows.

SMILES	BasE inh	KSHV LANA nucl
CC(C)(C)NC(=O)CS(=O)(=O)c1cn(CC(=O)N2CCCCC2)c2ccccc12	0.3	-0.89
CNc1nsc(C(=O)c2ccc(F)cc2)c1N	-0.3	0.33
Cc1ccc2c(COC(=O)c3ccccc3NCc3ccco3)cc(=O)oc2c1C	1.5	/
Cn1nc(C(F)(F)F)c2cc(NC(=O)OCC(C)(C)C)sc21	/	-0.0045
CCOC(=O)c1sc(N(Cc2ccccc2)C(=O)CSc2nnc(-c3ccco3)n2C)nc1C	-1.0	/
Cc1nc(C)c(CC(=O)N/N=C/c2ccc(F)cc2)c(=O)[nH]1	2.1	-0.49
CC(C)CNC(=O)N1CCC2(CC1)NC(=O)c1ccccc1O2	0.3	-0.11
CC1CCN(c2nnc(NC(=O)Cn3c(=O)oc4ccccc43)s2)CC1	-0.7	-0.068
NC(=O)c1ccc(C(F)(F)F)[nH]c1=O	/	-0.32
COC(=O)c1ccc(NC(=S)Nc2cc(C)[nH]n2)cc1	0.0	1
CC(=O)Oc1c(O)ccc2c(C)cc(=O)oc12	0.4	0.54
O=C(COc1ccc(Br)cc1)Nc1cccc(-c2nc3ccccc3o2)c1	0.7	-0.66
Cc1c(CN2CCN(c3ccccn3)CC2)sc2ccccc12	2.5	/
CCn1c(C)nc2cc(-c3nnc(Nc4ccc(Cl)cc4)s3)ccc21	-1.6	/
COc1ccccc1OCc1ccc(C(=O)OCC2CCCO2)o1 (stereo not given)	5.0	0.64
Cn1c(/C(C#N)=C(\O)c2ccccc2)nc2ccccc21	11	0.027
COc1cccc2c1Oc1ncccc1N(c1ccc(C(=O)NCc3ccc(C)o3)s1)C2	-0.2	0.11
C=CCn1c(SCC)nnc1-c1cccc(C)c1	1.0	/
Cn1cccc1C(=O)NC(=O)CSc1cccc[n+]1[O-]	1.0	/
CC1CCCN(C(=O)c2ccc3nc[nH]c3c2)C1 (stereo not given)	-0.5	/
O=C1CC(c2ccccc2)CC2=C1CN(C1CCCCC1)CN2 (stereo not given)	0.2	-0.27
CCOc1ccccc1C(=O)NC1CCSC1=O (stereo not given)	1.6	1
COCc1cc(=O)[nH]c(SCC(=O)c2ccccc2)n1	0.6	/
O=C(NCc1cccs1)c1ccccc1N1CCOCC1	/	-0.46
CC(C)N1CCC(=O)NC1=O	-4.3	/
SMILES	BasE inh	KSHV LANA nucl
c1coc(CNC2=NCCC2)c1	1.6	/
O=C(Cc1ccc(NC(=O)N2CCCCc3ccccc32)cc1)N1CCCCC1	3.9	-0.1
COc1ccc(C2NS(=O)(=O)N=C3CCCN32)c(OC)c1 (stereo not given)	0.3	/
CC(NS(=O)(=O)c1ccc(Cl)s1)C1CC2CCC1C2 (stereo not given)	0.7	/
Cc1cc(/C=C2\SC(=Nc3ccc(N4CCOCC4)cc3)N(C)C2=O)c(C)n1-c1cccnc1	1.5	0.2
O=C(OCc1csc(-c2ccccc2)n1)C1CC(=O)N(Cc2ccco2)C1 (stereo not given)	-0.7	/
O=c1[nH]c(=O)n(-c2ccccc2)c(O)c1C=Nc1ccc(S(=O)(=O)N2CCCCC2)cc1	2.9	0.44
O=C(OCC(=O)c1c[nH]c2ccccc12)c1ccc2c(=O)n3c(nc2c1)CCCCC3	-1.8	/
NC(=O)COC(=O)COc1ccc(C(=O)c2ccccc2)cc1	0.3	/
CCOC(=O)c1c(C)n(-c2ccc(C)cc2)c2ccc(OCC(O)CN3CCN(C)CC3)cc12 (stereo not given)	-2.4	/
CCOC(=O)C1=C(c2ccccc2)OC(N)=C(C#N)C1C1CCCCC1 (stereo not given)	2.8	-0.49
c1ccc(OCCNc2nnnn2-c2ccccc2)cc1	3.3	/
CCC(=O)N/C(N)=N\c1nc(C)c2cc(OC)ccc2n1	-0.5	0.013
CC(=O)Nc1cccc(Oc2nnnn2-c2ccccc2)c1	-0.7	/
S=c1[nH]nc(-c2cccnc2)n1Cc1ccccc1	3.9	-0.73
CC(C)CCNC(=O)Nc1cn(C)c(=O)c2ccccc12	1.8	-0.5
CSc1ncc(-c2ccc(Br)cc2)[nH]1	-0.5	-0.9
NC(=O)c1ccsc1NC(=O)CSc1ccc(S(=O)(=O)N2CCCCC2)cn1	-3.2	/
Cc1cccc(N=C2C(=O)N(c3ccccc3)c3ccccc32)c1	/	-0.75
CCc1cc2c(=O)n(Cc3ccco3)c(SC(C)C(=O)N3CCc4ccccc43)nc2s1 (stereo not given)	0.8	/
COc1cc(COC(=O)c2ccc3c(c2)S(=O)(=O)N=C2CCCCCN23)cc(OC)c1OC	0.6	/
Cc1cc(C)n(NC(=S)NC2CCCC2)c(=O)c1C#N	0.1	/
CNCc1ccc(Cl)c(Cl)c1	-15	/
COC(=O)Cn1c(O)c(N=NC(=O)C2C(=O)NCC2c2ccccc2)c2ccccc21 (stereo not given)	0.1	0.14
CC(C)C/C(O)=C/c1nc2cc(Cl)ccc2oc1=O	0.2	/

One compound at a time, as listed above. Values in the order: BasE inh, KSHV LANA nucl
O=C(Cc1ccc(NC(=O)N2CCCCc3ccccc32)cc1)N1CCCCC1 in the list: 3.9, -0.1
c1coc(CNC2=NCCC2)c1 in the list: 1.6, /

Next section.
SMILES	BasE inh	KSHV LANA nucl
CC(=O)N(c1ccccc1)c1nc(COC(=O)c2cc(C)oc2C)cs1	1.8	/
COC(=O)C(C)Sc1nc2ccccc2c(=O)n1-c1ccccc1 (stereo not given)	0.9	/
Cc1ccc(S(=O)(=O)NC(CC(=O)O)c2ccccc2)cc1 (stereo not given)	-0.4	-0.54
N#C/C(=C/c1ccc(O)c(O)c1)C(=O)OC/C=C/c1ccccc1	0.2	1.3
COc1cc2c(cc1NC(=O)C(C)Sc1nncn1C)oc1ccccc12 (stereo not given)	1.8	/
O=C(CCN1C(=O)C2CC=CCC2C1=O)N1CCN(C(c2ccccc2)c2ccccc2)CC1 (stereo not given)	2.4	/
c1ccc(-c2ccc(SCc3cccnc3)nn2)nc1	-1.1	-0.23
O=C1CSC(=O)N1Cc1ccc(CN2C(=O)CSC2=O)cc1	-0.3	/
CCCCCCCCCCCCCCC[C@@H](O)[C@H](CO)NC(C)=O	-0.7	-0.15
Cc1[nH]n(-c2ccccc2)c(=O)c1Sc1ccc(Cl)cc1	4.0	/
O=C(Nc1ccccc1)C(/C=N/O)C(=O)Nc1ccccc1	/	-0.79
COC(=O)c1ccc(COC(=O)c2cc(S(=O)(=O)N(C)C)ccc2N2CCCC2)o1	0.4	/
CC(C)NC(=O)NC(=O)CN1CCCC1	1.3	/
O=C(NC1CCCCC1)N(Cc1ccccc1)Cc1ccco1	0.7	0.65
NNC(=O)CC12CC3CC(CC(C3)C1)C2	1.5	/
NC(=O)C1CCN(Cc2nc3cc(C(F)(F)F)ccc3c(=O)[nH]2)CC1	1.8	/
CC(C)(C)NC(=O)c1cccc(NC(=O)c2ccco2)c1	-0.5	-0.054
Cc1cc(I)cc(C)c1NC(=O)CSc1nnc(Cc2ccccc2)o1	-6.2	2.1
Cn1c(=O)c2cc(S(=O)(=O)NC(Cc3ccccc3)C(=O)NCc3ccco3)ccc2n(C)c1=O (stereo not given)	-0.1	0.28
CCc1ccc(NC(=O)C(C)Sc2nnc(-c3ccccc3)o2)cc1 (stereo not given)	3.5	/
c1ccc(Cn2c(SCc3nc4ccccc4s3)nnc2C2CC2)cc1	-4.6	/
COc1ccc(/C=N/NC(=O)c2nnn(-c3nonc3N)c2C)cc1COc1ccc(F)cc1F	0.9	-0.65
CC(=O)N1CCN(S(=O)(=O)c2ccc(C)cc2)C1C(C)C (stereo not given)	-3.5	1.7
OC(CNCCNc1ncccc1C(F)(F)F)Cn1ccc2ccccc21 (stereo not given)	0.2	0.66
N#C/C(=C\Nc1cccc(C(F)(F)F)c1)c1ccc(Cl)cc1	/	0.099
SMILES	BasE inh	KSHV LANA nucl
CCN(CC)S(=O)(=O)c1ccc2oc(C(=O)NC3CCCC(C)C3C)c(C)c2c1 (stereo not given)	3.3	-0.001
CCCCn1c(=S)[nH]c2ccccc21	-1.0	-0.053
CN1CC(=O)N(CCCC(=O)O)C1=O	2.5	/
COC(=O)c1ccc(CN2CCOCC2)o1	/	-0.058
O=C1c2ccccc2C(=O)N1c1nc(-c2cccs2)cs1	5.1	-0.28
Cc1cc(C)nc(SCc2nnc(SCC(=O)N3c4ccccc4Sc4ccc(Cl)cc43)o2)n1	-0.8	-0.51
NC(=O)COC(=O)/C=C/c1cccc(Br)c1	-0.6	/
CCC(C)C(=O)Nc1ccc(-c2nnc(-c3ccccc3)o2)cc1 (stereo not given)	-0.1	-0.45
COc1ccc(CCn2c(=O)c(C#N)cc3c(=O)n4cccc(C)c4nc32)cc1OC	0.7	-0.21
O=C(O)/C=C/c1ccco1	1.4	-1.1
O=C(C[n+]1ccc(/C=N/O)cc1)N1CCCCC1	0.8	/
COc1ccc2[nH]c(=O)c(CN(Cc3ccc(C)cc3)C(C)=O)cc2c1	0.3	-0.81
Cc1ccc(OCC2Cn3c(nc4c3c(=O)[nH]c(=O)n4C)O2)cc1C (stereo not given)	1.3	-1.1
CC(Sc1nnc(COc2ccccc2)n1-c1ccccc1)C(=O)O (stereo not given)	4.5	0.58
CCCNC(=O)Cn1nc(C(F)(F)F)c2c1CCC2	-0.6	-0.55
COc1cccc(/C=C/C(=O)Nc2c(F)c(F)c(F)c(F)c2F)c1OC	2.2	/
NS(=O)(=O)c1ccc(NC(=O)/C=C/c2ccc3c(c2)OCCO3)cc1	-5.4	/
Cc1ccnc2nc(C(=O)OCC(=O)Nc3ccccc3)nn12	-2.8	/
CCn1c(Sc2ncnc3c2sc2nc(C)cc(C)c23)nnc1-c1cccs1	-0.3	/
CC=C1[C@H]2C=C(C)C[C@]1(N)c1ccc(=O)[nH]c1C2	/	-0.85
O=C(/C=C/c1cccs1)N(Cc1ccccn1)c1nc2ccccc2s1	-1.5	0.36
CC[N+]1=C(C)C(C)(C)c2cc(-c3ccccc3)ccc21	0.1	/
O=C1NC2(CCCC2)C(=O)N1Cc1ccc(Br)cc1	-1.4	/
COC(=O)c1ccc(OCC(O)CNCC2CCCO2)c(OC)c1 (stereo not given)	-1.1	/
COc1ccc(NC(=O)CSc2nnc(Cc3cccn3C)n2CCc2ccccc2)c(OC)c1	-2.0	0.89

Ordered by SMILES length (low to high): 16 of the compounds above.
SMILES	BasE inh	KSHV LANA nucl
O=C(O)/C=C/c1ccco1	1.4	-1.1
CCCCn1c(=S)[nH]c2ccccc21	-1.0	-0.053
CN1CC(=O)N(CCCC(=O)O)C1=O	2.5	/
O=C(C[n+]1ccc(/C=N/O)cc1)N1CCCCC1	0.8	/
O=C1NC2(CCCC2)C(=O)N1Cc1ccc(Br)cc1	-1.4	/
O=C1c2ccccc2C(=O)N1c1nc(-c2cccs2)cs1	5.1	-0.28
COC(=O)c1ccc(OCC(O)CNCC2CCCO2)c(OC)c1 (stereo not given)	-1.1	/
CC[N+]1=C(C)C(C)(C)c2cc(-c3ccccc3)ccc21	0.1	/
CCC(C)C(=O)Nc1ccc(-c2nnc(-c3ccccc3)o2)cc1 (stereo not given)	-0.1	-0.45
O=C(/C=C/c1cccs1)N(Cc1ccccn1)c1nc2ccccc2s1	-1.5	0.36
CC=C1[C@H]2C=C(C)C[C@]1(N)c1ccc(=O)[nH]c1C2	/	-0.85
CCn1c(Sc2ncnc3c2sc2nc(C)cc(C)c23)nnc1-c1cccs1	-0.3	/
Cc1ccc(OCC2Cn3c(nc4c3c(=O)[nH]c(=O)n4C)O2)cc1C (stereo not given)	1.3	-1.1
NS(=O)(=O)c1ccc(NC(=O)/C=C/c2ccc3c(c2)OCCO3)cc1	-5.4	/
CCN(CC)S(=O)(=O)c1ccc2oc(C(=O)NC3CCCC(C)C3C)c(C)c2c1 (stereo not given)	3.3	-0.001
Cc1cc(C)nc(SCc2nnc(SCC(=O)N3c4ccccc4Sc4ccc(Cl)cc43)o2)n1	-0.8	-0.51

Other structures
SMILES	BasE inh	KSHV LANA nucl
Clc1ccc(CNc2ccccn2)cc1	1.6	0.47
CC(C)(C)C(=O)NC1CCN(CC(=O)N2CCCCCC2)CC1	1.0	0.43
Cc1ccc(CC(C#N)Sc2nnc(C3COc4ccccc4O3)n2C)cc1 (stereo not given)	-0.4	/
N#Cc1nn(-c2ccccc2)c(=O)n(Cc2ccccc2)c1=O	2.0	-1.3
COC(=O)C(N)Cc1ccc(O)cc1 (stereo not given)	-1.1	0.072
CN1C(=O)C2C=CC1C1C(=O)N(c3ccccc3)C(=O)C21 (stereo not given)	1.7	-0.28
Fc1ccc(-c2cc3ncnc(NCc4cccs4)c3s2)cc1	-0.2	/
Cc1ccc(S(=O)(=O)c2cc3c(=O)n4ccccc4nc3n(Cc3ccccc3)c2=N)cc1	12	/
CCCCCCCCCCCCCCCC(=O)OCC(O)[C@H]1OC(=O)C(O)=C1O (stereo not given in full)	/	1.1
CCOC(=O)c1[nH]c(CSc2nnc(-c3ccncc3)n2CCOC)c(C(=O)OCC)c1C	-1.8	/
CC1(C)CC(=O)C2=C(C1)N(Cc1ccco1)C1=C(C(=O)c3ccccc31)C2c1ccc(F)cc1 (stereo not given)	4.2	-0.46
CCOCCCn1c(=S)[nH]c2cc(C(=O)N3CCN(c4ccccc4)CC3)ccc2c1=O	-3.9	2.4
CCn1cc(S(=O)(=O)Nc2cc(C)on2)cn1	1.1	-2.2*
Cc1nonc1NCc1ccc(N(C)C)cc1	1.3	-0.18
COc1ccc2c(Cl)c(C(=O)NN=C3CCN(C)CC3)sc2c1	-0.5	/
COc1ccc(-c2cc(C(=O)NCC(=O)O)c(C)o2)cc1OC	-0.7	-0.72
NCCC(=O)NCCc1cnc[nH]1	-1.3	0.079
CCCCC1CCC(C(=O)ON2C(=O)c3cccc4cccc(c34)C2=O)CC1 (stereo not given)	1.4	/
N#Cc1ccccc1OC1CCOC1=O (stereo not given)	1.0	/

Assay outcomes deposited in PubChem BioAssay by ICCB-Longwood Screening Facility, Harvard Medical School.
